# TRPV1 potentiator – HTS Assay for Compounds that Act as Potentiators of the Vanilloid Receptor 1 | TRPV1-expressing cells, Fluo-8 calcium influx, capsaicin EC20 potentiation; host cell line not named in the record; control for the full effect not named in the record | potentiation, % at 8.33 µM | 320,000 tested, 0.02% active | AID 540277, 2011; active means potentiation above 80%; inconclusive means 30% to 80%; inactive means below 30%; note: 0% is about no effect
#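 Cells expressing TRPV1 were dye-loaded with Fluo-8 and read kinetically: 10 s baseline, 3 min after compound (agonist portion), then 2 min after EC20 capsaicin (allosteric enhancer portion). Calcium-bound dye fluorescence at 480/520 nm.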
# ClpP mod – qHTS Assay for Activators of ClpP; ATP-dependent Clp protease proteolytic subunit (Bacillus subtilis (strain 168)), P80244; purified B. subtilis ClpP, FRET peptide cleavage, 20 min; Potency, µM (highest dose often 57.5 µM), without a hit: at the highest dose activity change, negative = active; 340,000 tested, 1.9% active; AID 651965, 2013; active = well fitted falling curve with a large enough effect; inconclusive = small, poorly fitted or top-dose-only effect; inactive = no such curve, though single readings can be large or run the other way; note: potency is the fitted concentration of half-maximal effect; the source files actives as falling curves though it sought activators and does not explain the sign; nearly all actives have a fitted effect of over 65% in size; many hits overshoot -100%
# Target sequence (P80244 whole entry, looked up): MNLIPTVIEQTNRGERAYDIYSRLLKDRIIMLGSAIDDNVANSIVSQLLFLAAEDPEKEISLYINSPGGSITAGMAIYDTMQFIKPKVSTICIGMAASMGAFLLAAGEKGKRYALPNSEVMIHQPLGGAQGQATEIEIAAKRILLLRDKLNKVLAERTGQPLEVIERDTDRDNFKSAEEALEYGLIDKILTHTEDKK
#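 ClpP 10 microg/mL final, pH 8 Tris/KCl buffer with BSA, glycerol, Tween-20; compound pinned in; FRET-FV substrate; RT 20 min; Ex320/Em430; ΔFRET vs ADEP 5.8 microM, DMSO, no enzyme.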
# PINK1 modulator – A Quantitative High throughput Screen to Identify Chemical Modulators of PINK1 Expression. 410,000 tested, 0.2% active. Potency, µM (top dose mostly 76.6 µM), for inactives: top-dose activation (PINK1 increase), hits mostly activators. PINK1 immunofluorescence, high-content cytometry, 24 h; active = well fitted activation curve with a large enough effect; inconclusive = small, poorly fitted or top-dose-only effect; inactive = flat fitted curve, though single readings scatter; cell line not stated here;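 note: potency is the fitted concentration of half-maximal effect; % of control where 0% means no effect; nearly all actives have a fitted effect of over 65% in size; a mitochondrial uncoupler was the plate control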
#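 Readout is PINK1 immunofluorescence, quantified alongside mitochondrial, cell and nuclear markers by laser-scanning microplate cytometry. Cells from a stable line were exposed to compound titrations (5 concentrations) for 24 hours, with CCCP controls.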
# TRPML1 ag – qHTS for Agonists of the Human Mucolipin Transient Receptor Potential 1 (TRPML1); Mucolipin-1 (Homo sapiens), Q9GZU1; TRPML1-expressing cells, Ca2+ dye fluorescence, FDSS; host cell line not named in the record; reference of the full effect not given here; activation, % (no concentration beside the values); 410,000 tested, 0.12% active; AID 624414, 2012; in the data active = activation above about 50%; inconclusive = about 30% to 50%; inactive = below about 30%; note: 0% is about no effect; the text of the record puts the active cut at 80%
# Target sequence (Q9GZU1 whole entry, looked up): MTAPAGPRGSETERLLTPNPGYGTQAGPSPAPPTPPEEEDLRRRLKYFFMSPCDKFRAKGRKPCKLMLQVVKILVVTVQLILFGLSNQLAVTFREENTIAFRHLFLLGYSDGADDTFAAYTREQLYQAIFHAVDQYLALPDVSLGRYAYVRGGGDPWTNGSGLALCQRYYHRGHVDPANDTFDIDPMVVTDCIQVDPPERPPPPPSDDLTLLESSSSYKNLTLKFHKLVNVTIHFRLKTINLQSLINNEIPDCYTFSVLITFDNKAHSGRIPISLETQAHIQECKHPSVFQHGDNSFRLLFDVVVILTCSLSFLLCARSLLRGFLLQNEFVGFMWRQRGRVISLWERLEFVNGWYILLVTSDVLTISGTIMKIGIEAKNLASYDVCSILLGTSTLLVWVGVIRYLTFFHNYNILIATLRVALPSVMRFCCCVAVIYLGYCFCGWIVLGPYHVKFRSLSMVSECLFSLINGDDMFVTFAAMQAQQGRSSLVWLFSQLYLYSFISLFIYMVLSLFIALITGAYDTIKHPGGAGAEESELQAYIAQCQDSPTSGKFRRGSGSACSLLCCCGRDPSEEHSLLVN
#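 Cells: TRPML1-DL, 1X Tet inducer, ~16 h at 37 degrees C/5% CO2. Dye: ABD Ca8 no-wash + quencher, 45-90 min RT. Read: 10 s baseline, compound add, 110 s agonist phase; 54-4 EC80 (4uM final), 110 s antagonist phase.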
# TRPML1 blocker – qHTS for Inhibitors of the Human Mucolipin Transient Receptor Potential 1 (TRPML1) | Mucolipin-1 (Homo sapiens), Q9GZU1 | TRPML1-inducible cells, Ca2+ dye fluorescence, FDSS; active compounds read low; inhibition of EC80 agonist-evoked calcium signal | activity change, negative = inhibition, % (test concentration not listed) | 390,000 tested, 0.02% active; in the data active means activity change below about -50%; inconclusive means about -30% to -50%; inactive means above about -30%;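 note: stimulus is agonist 54-4 at its EC80 concentration; % is set by controls: 0 for no effect and ±100 for the full control effect; compound concentration not given in the record; the text of the record puts the active cut at -80%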
#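 Tet-induced TRPML1-DL cells loaded with Ca8 no-wash calcium dye were read kinetically on FDSS. Compound addition was followed by EC80 agonist 54-4 (4 uM final); inhibition was read over 110 s.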
# Menin MLL FP FL – qHTS Assay for Inhibitors Targeting the Menin-MLL Interaction in MLL Related Leukemias: Competition With Fluorescein Labeled MLL-derived Peptide; AID 1766, 2009; 290,000 tested, under 10 active; Fluorescence polarization, fluorescein-MLL peptide displacement from menin; FP activity change, % at 61.4 µM; inconclusive = falling polarisation curve, or a change in total fluorescence; inactive = total fluorescence flat and polarisation flat or rising; no compound was filed as active; the % refers to the polarisation; negative = inhibition;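 note: % of control where 0% means no effect; inhibitors lower the polarisation; unlabelled MLL peptide was the positive control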
# Sfp inh – qHTS Assay for Inhibitors of Bacillus subtilis Sfp phosphopantetheinyl transferase (PPTase) | 4'-phosphopantetheinyl transferase ffp (Bacillus subtilis), Q9F4F7 | Biochemical Sfp PPTase activity, qHTS | Potency, µM, without a hit: max response, negative = inhibition, most hits filed as inhibitors | 310,000 tested, 3.5% active | AID 1490, 2009; active = well fitted inhibition curve with a large enough effect; inconclusive = small, poorly fitted or top-dose-only effect, or another doubt; inactive = no such curve, though single readings can be large or run the other way;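 note: the enzyme is Sfp with the accession as filed and its product quenches rhodamine fluorescence; potency is the fitted concentration of half-maximal effect; 0% = enzyme reaction without inhibitor and -100% = no enzyme wells; top concentration of the series not given in the record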
#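 Fluorescence-quenching assay: 15 nM Sfp-PPTase preincubated 15 min at room temperature with compound, then 5 uM rhodamine-CoA and 12.5 uM BHQ-2-labelled YbbR peptide added. Fluorescence (ex 525/em 598 nm) read at start and after 30 min; difference gives rate.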
# The depositor's hits bear a star; ? = inconclusive; nt = not tested or not shown; & = joins results of further samples; [ ] = another dose, or the depositor's remark.
cpd | structure | TRPV1 potentiator | ClpP mod | PINK1 modulator | TRPML1 ag | TRPML1 blocker | Menin MLL FP FL | Sfp inh
1 | O=C(CSc1nc2ccccc2n1Cc1cccc(F)c1)N1CCN(c2ccc(F)cc2)CC1 | nt | 4.5% | 3.4% | 0.8 | -13 | nt | nt
2 | COc1cccc(C(O)c2nc(-c3cccc(C(F)(F)F)c3)cs2)c1 (configuration not stated) | nt | 2.3% | 7.5% | -0.2 | nt | nt | nt
3 | O=C(c1nnc(Cc2ccc(Cl)cc2)o1)N1CCc2ccccc2C1 | -14 | 3.4% | 0.2% | -0.5 | -22 | 0.8 | -1%
4 | COc1ccc(-c2nc3ccc([N+](=O)[O-])cc3[nH]2)cc1 | -23 | -1.6% | 0.4% | -0.6 | 8 | 1.3 | -2%
5 | O=C(NCCCn1ccnc1)C(=O)c1c[nH]c2ccccc12 | 1 | -1.3% | -0.7% | -0.3 | 21 | ? | 16%
6 | CC(C(=O)O)N1C(=O)C2C3c4ccccc4C(c4ccccc43)[C@@H]2C1=O (some centres not stated) | 3 | -1.3% | 0.7% | 0.2 | -11 | -6.3 | 10%
7 | O=C(Nc1cccnc1)c1ccccc1Oc1ccccc1 | -7 | -1.7% | -1.3% | -1.1 | -2 | 1.7 | -25%
8 | CC(C)CCNC(=O)C1CCN(c2nc3ccccc3o2)CC1 | 3 | 0.8% | 1.1%[38.3 µM] | 2.1 | -20 | 0.8 | 11%
9 | CCOc1ccccc1NC(=O)Nc1nnc(N(C)Cc2ccccc2)s1 | nt | -0.1% | 2.1% | 0.0 | 12 | nt | nt
10 | COc1ccc(C2(C(=O)Nc3ccc(S(=O)(=O)Nc4nc(C)cc(C)n4)cc3)CCCC2)cc1OC | 4 | -2.4% | 17% | 0.2 | -1 | -0.2 | 4%
11 | c1ccc(-c2noc(CN3CCN(c4ccccc4)CC3)n2)cc1 | 15 | 1.6% | 4.2% | 0.8 | -12 | 3.1 | -12%
12 | Cc1ccc(-c2nc(CS(=O)CC(=O)NCCN3CCOCC3)c(C)o2)cc1 (configuration not stated) | 20 | -20% | 0.5% | -0.2 | -8 | 3.3 | 24%
13 | C#CC(C)OC(=O)C(C)NC(=O)c1ccccc1 (configuration not stated) | -2 | 0.2% | 1.8% | -0.5 | 4 | -7.1&0.1 | 22%&20%
14 | Cc1ccnc2nc(C(=O)OCC(=O)NCCc3ccc(Cl)cc3)nn12 | 9 | -1.7% | 3.1% | 0.3 | 7 | 3.7 | 11%
15 | O=C(CSc1nc(=O)n(Cc2ccco2)c2c1CCC2)NCc1ccccc1Cl | nt | -2.4% | -0.4% | -0.1 | 33 | nt | nt
16 | Cc1ccc2c(c1)CCCN2CC(=O)Nc1cccc(S(=O)(=O)N2CCCC2)c1 | 6 | -5.7% | 0.9% | 1.0 | 43 | nt | nt
17 | CN(C)CCCNC(=S)N(CCO)Cc1cc2cc3c(cc2[nH]c1=O)OCO3 | 6 | 4.2% | 1.5% | 0.1 | -3 | 2.9 | 0%
18 | COc1cccc(S(=O)(=O)NCc2ccc(C(=O)NCc3ccco3)cc2)c1 | 12 | 0.1% | 4.8%[38.3 µM] | 0.0 | 0 | 3.6 | ?
19 | Cc1ccc2cc(S(=O)(=O)NCCCN3CCOCC3)ccc2c1 | 3 | nt | -0.8% | -0.6 | 16 | -0.4 | 6%
20 | COC(=O)c1cn(NC(=O)COc2ccc(Cl)cc2)c(=O)c2ccccc12 | -17 | -1.6% | 7.8% | -0.1 | -11 | 1.4 | 2%
21 | O=C(NCCCO)c1nc2ccccc2s1 | -6 | -5.1% | 0.5% | -0.3 | 12 | 1.4 | 24%
22 | Cc1noc(C)c1COC(=O)c1cccc(S(=O)(=O)N2c3ccccc3CC2C)c1 (configuration not stated) | 7 | -1.1% | -0.2% | 1.0 | 0 | 7.3 | 20%
23 | COCCNC(=O)c1c(N)n(/N=C/c2cccs2)c2nc3ccccc3nc12 | 14 | ? | 0.9% | -0.5 | -2 | 1.6 | 7%
24 | CC(O)(c1cccnc1)c1nc(-c2ccoc2)cs1 (configuration not stated) | nt | 1.9% | 0.4% | -0.7 | nt | nt | nt
25 | COc1ccc(N=Nc2ccc3ccccc3c2)c(O)c1 | 7 | 1.2% | 3.8% | nt | nt | ? | ?

# Compound profiles, as listed above. Order of values: TRPV1 potentiator	ClpP mod	PINK1 modulator	TRPML1 ag	TRPML1 blocker	Menin MLL FP FL	Sfp inh
# `COc1ccc(-c2nc3ccc([N+](=O)[O-])cc3[nH]2)cc1` is listed with -23	-1.6%	0.4%	-0.6	8	1.3	-2%
# `Cc1noc(C)c1COC(=O)c1cccc(S(=O)(=O)N2c3ccccc3CC2C)c1` (configuration not stated) is listed with 7	-1.1%	-0.2%	1.0	0	7.3	20%

# Reformatted with values under each structure: entries from further up
# Value order – TRPV1 potentiator	ClpP mod	PINK1 modulator	TRPML1 ag	TRPML1 blocker	Menin MLL FP FL	Sfp inh
(1) O=C(CSc1nc2ccccc2n1Cc1cccc(F)c1)N1CCN(c2ccc(F)cc2)CC1
→ nt	4.5%	3.4%	0.8	-13	nt	nt
(2) COc1cccc(C(O)c2nc(-c3cccc(C(F)(F)F)c3)cs2)c1 (configuration not stated)
→ nt	2.3%	7.5%	-0.2	nt	nt	nt
(3) O=C(c1nnc(Cc2ccc(Cl)cc2)o1)N1CCc2ccccc2C1
→ -14	3.4%	0.2%	-0.5	-22	0.8	-1%
(4) COc1ccc(-c2nc3ccc([N+](=O)[O-])cc3[nH]2)cc1
→ -23	-1.6%	0.4%	-0.6	8	1.3	-2%
(5) O=C(NCCCn1ccnc1)C(=O)c1c[nH]c2ccccc12
→ 1	-1.3%	-0.7%	-0.3	21	?	16%
(6) CC(C(=O)O)N1C(=O)C2C3c4ccccc4C(c4ccccc43)[C@@H]2C1=O (some centres not stated)
→ 3	-1.3%	0.7%	0.2	-11	-6.3	10%
(7) O=C(Nc1cccnc1)c1ccccc1Oc1ccccc1
→ -7	-1.7%	-1.3%	-1.1	-2	1.7	-25%
(8) CC(C)CCNC(=O)C1CCN(c2nc3ccccc3o2)CC1
→ 3	0.8%	1.1%[38.3 µM]	2.1	-20	0.8	11%
(9) CCOc1ccccc1NC(=O)Nc1nnc(N(C)Cc2ccccc2)s1
→ nt	-0.1%	2.1%	0.0	12	nt	nt
(10) COc1ccc(C2(C(=O)Nc3ccc(S(=O)(=O)Nc4nc(C)cc(C)n4)cc3)CCCC2)cc1OC
→ 4	-2.4%	17%	0.2	-1	-0.2	4%
(11) c1ccc(-c2noc(CN3CCN(c4ccccc4)CC3)n2)cc1
→ 15	1.6%	4.2%	0.8	-12	3.1	-12%
(12) Cc1ccc(-c2nc(CS(=O)CC(=O)NCCN3CCOCC3)c(C)o2)cc1 (configuration not stated)
→ 20	-20%	0.5%	-0.2	-8	3.3	24%
(13) C#CC(C)OC(=O)C(C)NC(=O)c1ccccc1 (configuration not stated)
→ -2	0.2%	1.8%	-0.5	4	-7.1&0.1	22%&20%
(14) Cc1ccnc2nc(C(=O)OCC(=O)NCCc3ccc(Cl)cc3)nn12
→ 9	-1.7%	3.1%	0.3	7	3.7	11%

# Other records.
cpd | structure | TRPV1 potentiator | ClpP mod | PINK1 modulator | TRPML1 ag | TRPML1 blocker | Menin MLL FP FL | Sfp inh
26 | COc1ccc(NC(=O)c2ccc(-n3cccn3)nc2)cc1 | nt | 4.8% | 21%[38.3 µM] | -0.9 | 13 | ? | 4%
27 | CN(CC(=O)Nc1sccc1C#N)C1CCCCC1 | -5 | -1.4% | -0.7% | 0.6 | 10 | 0.5 | -9%
28 | Cc1ccc(C(=O)c2cn(CC(=O)Nc3ccc(C(C)C)cc3)c3nc(C)ccc3c2=O)cc1 | nt | 2.0% | -0.7% | -0.4 | 39 | nt | nt
29 | N#C/C(=C(/O)COC(=O)c1ccc(C#N)cc1)c1nc2ccccc2s1 | 6 | -0.8% | ? | 2.4 | 0 | 21 | 50µM*
30 | COc1cccc(Nc2ncc3nc(-c4cn(C)c5ccccc45)c(=O)n(CCC#N)c3n2)c1 | nt | nt | ? | nt | nt | ? | 14%
31 | O=C(NCc1ccncc1)Nc1ccc(F)cc1 | 16 | -1.8% | 0.6% | -0.6 | -4 | 5.6 | -3%
32 | Nc1nc(CN2CCN(C(=O)c3ccco3)CC2)nc(Nc2cccc(Cl)c2)n1 | -3 | nt | 2.8% | -0.8 | 8 | -1.2 | 18%
33 | CC(OC(=O)CCCOc1ccccc1)C(=O)Nc1ccc(Cl)cn1 (configuration not stated) | -18 | -2.4% | 3.8% | 1.4 | 13 | nt | nt
34 | COCCNC(=O)C(c1ccc(C)cc1)N(C(=O)C(=O)NC1CCCC1)c1ccc2c(c1)OCCO2 (configuration not stated) | 9 | -0.9% | 3.2% | -0.5 | 2 | -1.5 | -7%
35 | CCNc1nc2c(c(=O)n(C)c(=O)n2C)n1CC(O)COc1ccccc1 (configuration not stated) | nt | -2.7% | -0.1% | 0.6 | -7 | nt | nt

# Assay outcomes deposited in PubChem BioAssay by National Center for Advancing Translational Sciences (NCATS).
